Vaccinia mCherry = qHTS for Stage-Specific Inhibitors of Vaccinia Orthopoxvirus: mCherry Reporter Primary qHTS | AID 720579, 2013 | 0.63% of 310,000 active | Potency, µM (top dose mostly 36.5 µM), for inactives: at the highest dose activity change, negative = inhibition, hits mostly inhibitors | Vaccinia virus mCherry reporter infection, fluorescence; about a quarter of the inactives have no number; active = well fitted inhibition curve with a large enough effect; inconclusive = small, poorly fitted or top-dose-only effect; inactive = no such curve, though single readings can be large or run the other way; tested in A549 cells; also: nearly all actives have a fitted effect of over 35% in size; inactives centre near -10
VACV Venus inh = qHTS for Stage-Specific Inhibitors of Vaccinia Orthopoxvirus: Venus Reporter Primary qHTS | Vaccinia virus Venus reporter expression, fluorescence | Potency, µM (highest dose often 36.5 µM), for the others: top-dose activity change, negative = inhibition, actives largely listed as inhibitors | 0.46% of 330,000 active; active means well fitted inhibition curve with a large enough effect; inconclusive means small, poorly fitted or top-dose-only effect; inactive means no such curve, though single readings can be large or run the other way; tested in A549 cells; also: nearly all actives have a fitted effect of over 30% in size; inactives centre near -10
* = called active by the depositor; i = inactive; ? = inconclusive; . = not tested or not shown; [ ] = another dose, or the depositor's remark. % is scaled to controls: 0 for no effect and ±100 for the full control effect; potency is read from the fitted curve at half-maximal effect.

SMILES,Vaccinia mCherry,VACV Venus inh
CC1(c2nnc(Cc3ccccc3)o2)CC(c2ccc(OC(F)(F)F)cc2)=NO1 (stereo not drawn),?,-17%
Cc1nc(SCCO)c2oc3ccccc3c2n1,-19%,-8%
Cc1ccc(NC(=O)CCCN2C(=O)COc3ccc(C)cc32)c(Cl)c1,-7%,-9%
N/C(=N\OC(=O)c1cc(-c2ccccc2)nc2ccccc12)c1ccncc1,-17%,3%
Cn1c(C(=O)N2COCC2(C)C)cc2c(=O)n3ccccc3nc21,-7%,-7%
O=C1CCCc2nc(N3CCCCC3)sc21,.,-15%
Cc1ccc(CSc2ccc(C(=O)N3CCOCC3)cc2[N+](=O)[O-])cc1,-1%,-14%
COC(=O)c1ccc(Cn2c(C)c(C(=O)NCc3ccco3)sc2=O)o1,-8%,-12%

SMILES,Vaccinia mCherry,VACV Venus inh
CCCCn1c(N)c(N(CCOC)C(=O)COc2c(C)cccc2C)c(=O)[nH]c1=O,-15%,-2%
CCn1c(CC(=O)Nc2ccc(Cl)cc2)nnc1SCC(=O)N1CCOCC1,-8%,-6%
Cc1cccc(N2CCN(c3c4c(nc5nncn35)CCC4)CC2)c1C,-11%,-8%
Cc1nc(/C(=N/O)C(N)=O)cs1,-13%,-3%
Cc1ccc(C)c(C(=O)COc2ccc(C)nc2[N+](=O)[O-])c1,.,13%
Cc1ccc(F)cc1NC(=O)CSc1nnc(CNC(=O)c2ccco2)n1C,-12%,-6%
Cc1cc(C)cc(N(CC(=O)NCc2ccco2)C(=O)CCC(=O)Nc2ccccn2)c1,.,-23%
Cc1cccc(N2C(=O)C(CC(=O)Nc3ccccc3)N(C3CCCCC3)C2=O)c1 (stereo not drawn),3%,5%

SMILES,Vaccinia mCherry,VACV Venus inh
Cc1sc2nc(-c3ccco3)oc(=O)c2c1C,.,7%
COc1ccccc1CC(=O)Nc1ccc(-c2nnc(-c3ccco3)o2)cc1,?,-25%
CCc1ccc(N(C(=O)c2csnn2)C(C(=O)NC2CCCCC2)c2cccnc2)cc1 (stereo not drawn),-8%,0%
CCN(CC(=O)Nc1cc(Cl)ccc1C)C(=O)c1cc([N+](=O)[O-])ccc1N1CCOCC1,-17%,-16%
O=C(/C=C/Nc1ccc(F)cc1)c1ccco1,?,-22%
CCOC(=O)c1cc(C#N)c(SC)nc1C,-5%,1%
N#Cc1cccnc1Oc1ccccc1,-19%,-10%
CCCCN(C)C(=O)c1oc2ccc(S(=O)(=O)N3CCCCCC3)cc2c1C,i,-20%

SMILES,Vaccinia mCherry,VACV Venus inh
CC(NC(=O)C1CCN(Cc2ccc(Oc3ccccc3)cc2)CC1)c1cccc2ccccc12 (stereo not drawn),-29%,-17%
COc1ccc(C2=Nc3ccccc3NC(=O)C2N(Cc2ccc(F)cc2)C(=O)c2ccco2)cc1 (stereo not drawn),6%,5%
c1csc(-c2cc(N3CCCCC3)c3ccccc3n2)c1,-7%,-19%
COc1ccccc1NC(=O)CSc1nc(-c2ccc(C(C)(C)C)cc2)c(C#N)c(=O)[nH]1,-15%,-8%
COc1ccc(C(C)=NNc2ccc([N+](=O)[O-])cc2S(=O)(=O)Nc2ccccc2C(=O)O)c(OC)c1,i,3%
COc1ccc(N=C2S/C(=C\c3ccco3)C(=O)N2CC(C)C)cc1,-3%,8%
C/C(=N\NC(=O)c1cccnc1)c1ccc(-n2ccnc2)cc1,-22%,6%
COCCn1nnnc1CN1CCN(c2cccc(C(F)(F)F)c2)CC1,-14%,-6%

By substructure: the entries above containing an aryl thioether with sulfur outside any ring
SMILES,Vaccinia mCherry,VACV Venus inh
Cc1nc(SCCO)c2oc3ccccc3c2n1,-19%,-8%
Cc1ccc(CSc2ccc(C(=O)N3CCOCC3)cc2[N+](=O)[O-])cc1,-1%,-14%
CCn1c(CC(=O)Nc2ccc(Cl)cc2)nnc1SCC(=O)N1CCOCC1,-8%,-6%
Cc1ccc(F)cc1NC(=O)CSc1nnc(CNC(=O)c2ccco2)n1C,-12%,-6%
CCOC(=O)c1cc(C#N)c(SC)nc1C,-5%,1%
COc1ccccc1NC(=O)CSc1nc(-c2ccc(C(C)(C)C)cc2)c(C#N)c(=O)[nH]1,-15%,-8%

Going on with the list.
SMILES,Vaccinia mCherry,VACV Venus inh
CC1N=C2c3ccccc3N=C(SCC(=O)NCCc3ccccc3)N2C1=O (stereo not drawn),-8%,-5%
O=C(CCCCn1c(=O)c2ccccc2n(CC(=O)Nc2cccc(C(F)(F)F)c2)c1=O)NCc1ccc2c(c1)OCO2,-18%,-28%
O=C(Cn1cc(SCc2cccc(F)c2)c2ccccc21)N1CCCC1,-14%,-20%
O=[N+]([O-])c1cccc(-c2nnnn2-c2cccc(F)c2)c1,?,11%
CCOc1ccccc1NC(=O)COC(=O)CCOc1cc(C)ccc1C,i,-14%
O=C(Nc1ccccc1)c1ccc(NCC2CCCO2)c(S(=O)(=O)N2CCOCC2)c1 (stereo not drawn),-14%,-8%
CCCC(NC(=O)c1c(C)noc1C)C12CC3CC(CC(C3)C1)C2 (stereo not drawn),-12%,14%
Cc1noc(C)c1NC(=O)Nc1ccc2c(c1)C(=O)N([C@H](C)CO)C[C@H](C)[C@@H](CN(C)S(=O)(=O)c1ccc(Cl)cc1)OCCCC[C@@H](C)O2,-13%,-6%

SMILES,Vaccinia mCherry,VACV Venus inh
CC(C)CN(C(=O)CCc1ccccc1)c1c(N)n(CC(C)C)c(=O)[nH]c1=O,i,2%
O=C(Nc1ccc2nc(SCC(=O)N3CCCc4ccccc43)sc2c1)c1ccccc1,?,?
CC(NC(=O)C12CC3CC(C)(CC(C)(C3)C1)C2)c1ccncc1 (stereo not drawn),i,-3%
O=C(O)c1ccc(N=NN2CCCCCC2)cc1,-18%,0%
C=CCN(c1ccc(F)cc1)S(=O)(=O)c1cc(C(=O)NC2CC2)ccc1Cl,i,-18%
CC(C)c1ccc(NC(=O)CN2C(=O)CCc3cc(S(=O)(=O)N4CCOCC4)ccc32)cc1,-6%,0%
CC1(C)CC2=C(CO1)C(=S)NC(c1ccccc1)N2CC1CCCO1 (stereo not drawn),-1%,-1%
COc1ccc(CNC(=O)C[C@H]2C[C@H](C(=O)N3CCCCC3)[C@@]3(C)c4[nH]c5cc(-c6ccco6)ccc5c4CCN3C2=O)cc1OC,?,?

SMILES,Vaccinia mCherry,VACV Venus inh
Cn1ncc2c1ncn1nc(COc3ccc4ccccc4c3)nc21,.,-5%
CCOC(=O)C1CCN(CC(C)(C)NS(=O)(=O)c2ccc(C)cc2)CC1,-3%,-11%
CC(=O)c1ccc(S(=O)(=O)Oc2ccc(C(=O)O)cc2Cl)cc1,-19%,-4%
Nc1ccn([C@H]2CS[C@@H](CO)O2)c(=O)n1,i,-8%
O=C(NCC1CC1)c1cc([N+](=O)[O-])cc([N+](=O)[O-])c1,-6%,-3%
COc1cc(NC(=O)CCc2c(C)nc3c(c(C)nn3-c3ccccc3)c2C)cc(OC)c1OC,?,-29%
Cc1ccc(NC(=O)CCC(=O)NNC(=O)/C=C/C(=O)O)c(C)c1,i,-12%
COc1ccc(/C(O)=C2\C(=O)C(=O)N(CCN(C)C)C2c2cccc(OC)c2OC)cc1Cl (stereo not drawn),i,-18%

SMILES,Vaccinia mCherry,VACV Venus inh
COc1cc(NS(=O)(=O)c2c(C)[nH]c(C)c2C(=O)N2CCCCC2)cc(OC)c1OC,-12%,-9%
Cc1nc2ccccn2c1C(=O)NC1CCCc2ccccc21 (stereo not drawn),?,-27%
CC(C)c1cc(C(=O)NCc2ccc(F)cc2)c(N)s1,?,-9%
Cc1ccc2c(c1)N(CCC(=O)NCCCN1CCCC1)C(=O)C(C)O2 (stereo not drawn),i,-17%
CC1CCCN(S(=O)(=O)c2ccc3c(c2)OCCO3)C1 (stereo not drawn),i,-8%
CCOc1ccc(C(=O)N2CCN(c3ccccc3)CC2)cc1OCC,i,-7%
CCC(C(=O)Nc1cccc(OC)c1)n1nc(C)c2c(C)n(-c3ccccc3)nc2c1=O (stereo not drawn),i,-19%
O=C1CSC(c2ccccc2F)N1 (stereo not drawn),-16%,1%

SMILES,Vaccinia mCherry,VACV Venus inh
Cc1ccc(C(=O)N2CCN(c3cc(=O)[nH]nc3-c3ccccc3)CC2)cc1,-21%,-10%
COc1ccc(CC(=O)NNC(=O)CCc2ccccc2)cc1,i,3%
O=C(NCC(=O)N(c1cccnc1)C(C(=O)NC1CCCC1)c1ccccc1)c1ccco1 (stereo not drawn),i,-1%
NCCNc1ccc([N+](=O)[O-])c(Sc2nc3ccccc3[nH]2)c1,?,-31%
COc1ccc(CNS(=O)(=O)c2cnc(N)nc2)cc1,-14%,-10%
C=C1C2CC[C@@]3(C)C(c4ccoc4)OC(=O)C[C@@]13OC1CC(=O)C(C)(C)C(CC(=O)OC)[C@]12C (stereo partly drawn),-4%,-5%
O=C(NCCCNC(=O)c1ccccn1)c1ccc(F)cc1,-7%,2%
O=C(NCCO)c1cccc2c1C(=O)c1ccccc1-2,i,-5%

SMILES,Vaccinia mCherry,VACV Venus inh
CCOc1ccc(C2C(=O)N(C3CCCCCC3)CC(=O)N2Cc2ccccc2)cc1OC (stereo not drawn),-9%,-14%
CCOc1ccccc1NC(=O)N1CCc2c(sc3c2CCCC3)C1c1ccccc1 (stereo not drawn),i,-7%
COc1c2ccoc2nc2c(OC)c(OC[C@@H](O)C(C)(C)O)ccc12,-1%,-9%
Cc1ccc(-c2ccc(=O)n(CC(=O)NCCN(C)C)n2)cc1,-17%,0%
COc1cc(C(=O)NCc2ccc3c(c2)OCO3)ccc1OCc1c(C)noc1C,i,-24%
Cc1ccccc1NC(=O)C(C)OC(=O)C1CCCO1 (stereo not drawn),i,2%
CCN1C/C(=N\S(=O)(=O)/N=C2\CN(CC)C(=O)N2CC)N(CC)C1=O,i,-1%
Cc1ccccc1NC(=O)Cc1nc(CCl)cs1,-20%,-14%

SMILES,Vaccinia mCherry,VACV Venus inh
COc1ccc(/C=N/NC(=O)Cn2nnc3ccccc32)cc1OC,i,-5%
O=C(CNS(=O)(=O)c1cccs1)N1CCc2ccccc2C1,.,2%
COc1ccc(C2SCC(=O)N2CC23CC4CC(CC(C4)C2)C3)cc1 (stereo not drawn),-12%,3%
Cc1ccccc1NC(=O)Cn1nnc2sc3c(c2c1=O)CC(C)(C)OC3,2%,8%
COc1ccc(N(C(=O)Cn2nnc(-c3ccc(F)cc3)n2)C(C)C(=O)NC2CCCC2)cc1 (stereo not drawn),i,-24%
C=C(C)c1cccc(C(C)(C)NC(=O)N2CCN(CC(N)=O)CC2)c1,.,-15%
COc1ccc(N2CC(NC(=O)NCCC(C)C)CC2=O)cc1 (stereo not drawn),-4%,-17%
CCN(c1ccccc1)c1nnc(NC(=O)Nc2ccc(Br)cc2)s1,-4%,-6%

SMILES,Vaccinia mCherry,VACV Venus inh
COc1ccc(/C=N/NC(=O)CN2CCSCC2)c(OC)c1,-15%,-9%
COc1cccc(NC(=O)CN(C)C(C)C(=O)Nc2cc([N+](=O)[O-])ccc2Cl)c1 (stereo not drawn),-7%,-4%
CC(NC(=S)NCCN1CCOCC1)C12CC3CC(CC(C3)C1)C2 (stereo not drawn),-21%,-19%
Cc1ccc(OCC(=O)N/N=C/c2ccncc2)cc1C,-10%,-8%
C=CC(COCc1ccccc1)N(Cc1ccc(OC)cc1)S(=O)(=O)c1ccccc1Br (stereo not drawn),-6%,-23%
CCN1C2=NCCCN2c2ccccc21,.,17%
O=P(C(=Nc1ccc(Cl)cc1)N1CCOCC1)(N1CCOCC1)N1CCOCC1,-1%,6%
COC(=O)CCC(C)C1CCC2C3CCC4CC(O)CCC4(C)C3CC(O)C12C (stereo not drawn),1%,-4%

SMILES,Vaccinia mCherry,VACV Venus inh
O=C(COC(=O)c1ccccn1)Nc1ccc(S(=O)(=O)N2CCOCC2)cc1,.,-4%
CCn1c2ccccc2c2nnc(SCC(=O)Nc3ccc4c(c3)OCO4)nc21,-12%,-8%
CC(=O)Nc1ccc(Nc2cc(C)nc3ccccc23)cc1,-6%,-3%
NC(=O)c1cccc(-c2ccnc3c2CC(C(=O)NCCc2ccccc2)O3)c1 (stereo not drawn),-3%,-17%
O=S(CCc1ccncc1)Cc1ccccc1 (stereo not drawn),-5%,4%
CC(=O)CC(=O)Nc1ccc(Cl)cn1,-29%,-15%
CN(CC(=O)N1CCC(C(N)=O)CC1)S(=O)(=O)c1ccc2ccccc2c1,-24%,-21%
O=C(CSc1ncn[nH]1)c1ccco1,-11%,-4%

SMILES,Vaccinia mCherry,VACV Venus inh
Cc1onc(-c2ccccc2Cl)c1C(=O)NCc1ccc(N2CCCC2=O)cc1,-12%[1.46 µM],-15%
COC(=O)Cn1c(C)nc2c(sc3nc(C)cc(C)c32)c1=O,.,-19%
COc1ccc2cc3c(N)nn(C(=O)Cc4ccccc4OC)c3nc2c1,-18%,-20%
CCc1ccc2oc(-c3cc(NC(=O)c4cc(OC)c(OC)c(OC)c4)ccc3O)nc2c1,-3%,-18%
CC(=O)c1ccc(NC(=O)CSc2nc(-c3ccc(C)cc3)nc3c2c(=O)n(C)c(=O)n3C)cc1,2%,-2%

Rows are unselected (roughly 0.86% active in at least one column).
